CtBP-E1A blk – inhibitors of CtBP/E1A interaction | AlphaScreen GST-E1A/His-CtBP binding, 1536-well; active compounds read low; control for the full effect not named in the record | activity change, % (test concentration not listed) | 340,000 tested, 0.49% active | AID 651724; in the data active means activity change below about -65%; inconclusive means about -30% to -65%; inactive means above about -30%; also: % is scaled to controls: 0 for no effect and ±100 for the full control effect
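In 5 uL wells, 23 nL compound meets equimolar GST-E1A and His-CtBP (5X stock 125 nM each) for 2 h, 37 °C. Beads (5X, 50 ug/mL) then 1 h, 37 °C, dark.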
D2 ag – agonists of human D2 dopamine receptor (beta-arrestin); P14416; DiscoveRx PathHunter D2 beta-arrestin, luminescence, 90 min; 100% = 57 uM dopamine signal; activation, % (no concentration beside the values); 360,000 tested, 0.084% active; AID 624465; in the data active = activation above about 40%; inconclusive = about 15% to 40%; inactive = below about 15%; also: compound concentration not given in the record; the text of the record calls up to 30% inactive
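DiscoveRx PathHunter D2 beta-arrestin cells (2,100/well) attached overnight, then compound-stimulated 90 min at 37 C in HBSS/10 mM HEPES/0.1% Tween-20 buffer; beta-galactosidase complementation read by luminescence after 1 h at ambient temperature. Dopamine 57 uM final (EC100) as control.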
D2 PAM – potentiates the human D2 dopamine receptor allosterically; P14416; DiscoveRx D2 beta-arrestin cells, luminescence, 90 min; 100% = 57 uM dopamine signal; potentiation, % (test concentration not listed); 360,000 tested, 0.23% active; active = potentiation of 50% or more; inconclusive = 30% to 50%; inactive = 30% or less;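 also: compound concentration not given in the record; tested on top of an EC20 dose of dopamine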
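PathHunter D2 cells, attached overnight at 37 deg C, received compound in DMSO plus dopamine at EC20 (50 nM final) for 90 min at 37 deg C. Beta-arrestin recruitment was read as luminescence after 1 h with detection reagent at ambient temperature.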
TRPV1 PAM – human TRPV1 potentiation; potentiation, % at 8.33 µM; TRPV1-expressing cells, Fluo-8 calcium influx, capsaicin EC20 potentiation; host cell line not named in the record; control for the full effect not named in the record; Q8NER1; 320,000 tested, 0.02% active; active means potentiation above 80%; inconclusive means 30% to 80%; inactive means below 30%; also: 0% is about no effect
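TRPV1-expressing cells were cultured overnight at 35.5C and loaded with Fluo-8 calcium dye for 40 to 90 min at room temperature. After a 10 s baseline, compound was added and calcium influx was read kinetically for 3 min (ex 480/em 520 nm).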
Six1-Eya2 blk – inhibitors of human Six1/Eya2 interaction; activity change, % (concentration not given with the values); 360,000 tested, 0.56% active; AlphaScreen GST-Six1/His-Eya2 binding, biochemical; active compounds read low; control for the full effect not named in the record; Q15475+O00167; in the data active = activity change below about -65%; inconclusive = about -30% to -65%; inactive = above about -30%; also: % is scaled to controls: 0 for no effect and ±100 for the full control effect
Target sequence (O00167 whole entry, looked up): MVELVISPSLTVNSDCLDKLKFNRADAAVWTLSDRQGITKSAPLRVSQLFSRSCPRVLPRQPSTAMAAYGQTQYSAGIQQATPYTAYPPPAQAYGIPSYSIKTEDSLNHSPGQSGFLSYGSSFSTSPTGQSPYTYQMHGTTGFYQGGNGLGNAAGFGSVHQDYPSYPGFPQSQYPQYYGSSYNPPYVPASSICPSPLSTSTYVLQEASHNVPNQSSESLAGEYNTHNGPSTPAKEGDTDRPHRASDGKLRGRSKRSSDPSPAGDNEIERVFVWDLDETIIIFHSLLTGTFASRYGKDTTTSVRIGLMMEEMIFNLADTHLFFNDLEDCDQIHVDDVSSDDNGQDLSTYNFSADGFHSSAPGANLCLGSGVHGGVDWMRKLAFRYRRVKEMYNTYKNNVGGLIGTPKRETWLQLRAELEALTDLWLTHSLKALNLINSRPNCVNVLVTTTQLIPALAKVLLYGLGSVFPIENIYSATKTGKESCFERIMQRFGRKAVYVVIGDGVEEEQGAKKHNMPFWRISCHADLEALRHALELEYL
Target sequence (Q15475 whole entry, looked up): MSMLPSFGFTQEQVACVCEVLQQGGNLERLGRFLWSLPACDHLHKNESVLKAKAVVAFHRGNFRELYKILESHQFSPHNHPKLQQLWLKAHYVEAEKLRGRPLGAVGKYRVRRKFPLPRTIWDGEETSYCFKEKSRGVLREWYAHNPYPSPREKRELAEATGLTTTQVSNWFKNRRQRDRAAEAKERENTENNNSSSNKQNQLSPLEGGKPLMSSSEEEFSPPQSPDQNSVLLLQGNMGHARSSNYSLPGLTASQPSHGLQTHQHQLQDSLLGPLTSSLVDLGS
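Homogeneous AlphaScreen proximity assay pairing GST-Six1 with His-tagged Eya2 (added as 5X mix: 250 nM and 500 nM) in 50 mM Tris pH 8.0, 300 mM NaCl, 1 mM TCEP. Glutathione donor and nickel acceptor beads; 1 h, 37 °C, dark.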
PINK1 modulator – changes PINK1 expression; PINK1 immunofluorescence, high-content cytometry, 24 h; Potency, µM (highest dose often 76.6 µM), inactives show top-dose activation (PINK1 increase), hits mostly activators; 410,000 tested, 0.2% active; AID 624263; active = well fitted activation curve with a large enough effect; inconclusive = small, poorly fitted or top-dose-only effect; inactive = flat fitted curve, though single readings scatter; cell line not stated here;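 also: potency is read from the fitted curve at half-maximal effect; % of control where 0% means no effect; nearly all actives have a fitted effect of over 65% in size; a mitochondrial uncoupler was the plate control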
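A stable cell line was treated with compounds at 5 concentrations for 24 hours, with CCCP as control. PINK1 levels and mitochondrial localization were measured by immunofluorescence with mitochondrial, cell and nuclear markers after fixation, read by laser-scanning cytometry.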
Sfp inh – inhibitors of Bacillus subtilis Sfp phosphopantetheinyl transferase; Biochemical Sfp PPTase activity, qHTS; 310,000 tested, 3.5% active; Q9F4F7; Potency, µM, inactives show max response, negative = inhibition, usual class: inhibitors; active = well fitted inhibition curve with a large enough effect; inconclusive = small, poorly fitted or top-dose-only effect, or another doubt; inactive = no such curve, though single readings can be large or run the other way;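 also: the enzyme is Sfp with the accession as filed and its product quenches rhodamine fluorescence; potency is read from the fitted curve at half-maximal effect; 0% = enzyme reaction without inhibitor and -100% = no enzyme wells; top concentration of the series not given in the record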
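With Hepes-Na pH 7.6 buffer containing 10 mM MgCl2, Sfp (15 nM) modified BHQ-2-YbbR (12.5 uM) using rhodamine-CoA (5 uM). Two reads 30 minutes apart at 525/598 nm yielded each well's rate.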
Numbers without * were called inactive; u = inconclusive; x = not tested or not shown; [ ] = another dose, or the depositor's remark.

SMILES	CtBP-E1A blk	D2 ag	D2 PAM	TRPV1 PAM	Six1-Eya2 blk	PINK1 modulator	Sfp inh
O=C(C1CC(=O)N(c2ccc3c(c2)OCCO3)C1)N1CCN(Cc2ccccc2F)CC1 (centres undefined)	1	0.7	1	17	4	0.4%	x
COc1ccccc1/C=C1\SC(=S)N(CCC(=O)NCCc2ccc(O)cc2)C1=O	-14	0.1	-4	-11	-12	u	-2%
Cn1cnc(S(=O)(=O)N2CCN(c3cccc(C(F)(F)F)c3)CC2)c1	5	2.6	-11	3	-1	0.9%	14%
Cc1ccccc1C(=O)Nc1ccc(C(=O)N/N=C/c2ccc(O)c(Br)c2)cc1	-13	3.7	9	10	-3	0.3%	11%
CCN(CC)c1ncnc2ccc(Br)cc12	1	-2.8	-24	-9	-2	-1.8%	12%
CC(C)(C)c1cc(CN2CCN(CCC#N)CC2)cc(C(C)(C)C)c1O	2	-1.2	-39	-5	-1	0.3%	-3%
C=C(C)Cn1c(-c2cccc([N+](=O)[O-])c2)n[nH]c1=S	3	3.0	-5	9	-10	1.2%	-15%
COc1cc(C(=O)NNC(=O)CSc2nnc3ccccn23)cc(OC)c1OC	0	-1.7	-3	1	6	-1.2%	x
COc1ccc(Cl)c(NC(=O)NCCN2CCN(c3ccccc3)CC2)c1	-6	-0.9	-3	2	8	13%	11%
O=C(Nc1cccnc1)c1ccc(Cl)c([N+](=O)[O-])c1	0	1.9	11	2	-2	-0.7%	15%
CCSC(=Nc1ccccc1)C1=C(O)COC1=O	5	-2.1	15	-4	2	1.0%	11%
COc1ccc(C(=O)CN2C(=O)c3ccccc3C2=O)c(OC)c1C	13	-1.4	-3	8	6	4.0%[38.3 µM]	15%
Cc1ccc(Cl)cc1NC(=O)CN1CCOCC1	11	-4.4	-4	x	4	2.3%	x
CCOC(=O)N1CCN(C(=O)CSCc2nc(-c3ccccc3C)oc2C)CC1	4	0.2	-3	3	0	-14%[38.3 µM]	7%
COc1ccc(/C(C)=N/NC(=O)c2sccc2-n2cccc2)cc1	-1	-2.9	-3	3	-8	0.2%	2%
COc1ccc(C(C)(C)C)cc1NC(=O)c1ccc2c(c1)SC1=NS(=O)(=O)CCN12	4	-0.3	-2	3	8	1.7%	19%
CC1CCCN(C(C(=O)Nc2ccc3c(c2)OCCO3)c2ccccc2)C1 (centres undefined)	-6	-4.5	-27	7	-10	-0.6%	-1%
COc1ccccc1N1CCN(C(=O)C(Sc2ccccc2)c2ccccc2)CC1 (centres undefined)	-4	-0.7	-15	7	-8	-1.0%	2%
O=C(COc1ccccc1-c1ccccc1)NNC(=O)NC1CCCCC1	-21	-1.9	-12	20	13	-0.6%	13%
O=[N+]([O-])c1cc2c(cc1CN1CCN(c3ccc(F)cc3)CC1)OCO2	-21	-3.4	-3	u	-28	2.5%	-10%

6 entries already listed, sorted by SMILES length, smallest number first.
SMILES	CtBP-E1A blk	D2 ag	D2 PAM	TRPV1 PAM	Six1-Eya2 blk	PINK1 modulator	Sfp inh
CCSC(=Nc1ccccc1)C1=C(O)COC1=O	5	-2.1	15	-4	2	1.0%	11%
O=C(COc1ccccc1-c1ccccc1)NNC(=O)NC1CCCCC1	-21	-1.9	-12	20	13	-0.6%	13%
COc1ccc(/C(C)=N/NC(=O)c2sccc2-n2cccc2)cc1	-1	-2.9	-3	3	-8	0.2%	2%
C=C(C)Cn1c(-c2cccc([N+](=O)[O-])c2)n[nH]c1=S	3	3.0	-5	9	-10	1.2%	-15%
CC(C)(C)c1cc(CN2CCN(CCC#N)CC2)cc(C(C)(C)C)c1O	2	-1.2	-39	-5	-1	0.3%	-3%
COc1ccc(C(C)(C)C)cc1NC(=O)c1ccc2c(c1)SC1=NS(=O)(=O)CCN12	4	-0.3	-2	3	8	1.7%	19%

(next part)
SMILES	CtBP-E1A blk	D2 ag	D2 PAM	TRPV1 PAM	Six1-Eya2 blk	PINK1 modulator	Sfp inh
CNc1nc(N)c([N+](=O)[O-])c(NCCO)n1	4	-3.6	-6	10	13	-0.4%	-16%
CCOC(=O)c1ccc(NC(=O)COc2ccccc2CNCCc2ccccc2)cc1	-6	-5.5	-3	-6	-16	-0.5%	50µM*
COc1ccc(-c2ccc(-c3nnn(CC(=O)N4CCOCC4)n3)cc2)cc1	-18	0.1	6	5	-2	-1.5%	17%
Cc1cccc(OCCCC(=O)NNC(=O)c2ccncc2)c1	1	-0.6	2	2	7	-2.5%	x
Cc1ccc(S(=O)(=O)N2CC(C)N(C(=O)N3CCOCC3)C2)cc1 (centres undefined)	0	-3.1	3	-14	4	1.0%	1%
NC(=O)c1nc[nH]c1C(=O)Nc1cccc(NC(=O)c2cccc(C(F)(F)F)c2)c1	4	-0.5	-3	x	5	2.3%	x
Cc1cccc(C)c1OCC(=O)Nn1c(=O)[nH]c2ccccc2c1=O	2	-0.7	4	u	-2	1.4%	11%
O=C(COc1coc(CN2CCc3ccccc32)cc1=O)NCCc1ccccc1	0	3.2	9	-1	-6	0.1%	x
O=C(NC1CCCCC1)C12CC3CC(CC(Cl)(C3)C1)C2	-4	-2.2	-11	-11	-4	5.6%	13%
O=C(OCC(=O)N1CCC(Cc2ccccc2)CC1)c1ccccc1	-4	-1.2	-5	-18	1	-0.5%	-4%

Entries above with an aryl thioether with sulfur outside any ring (two):
SMILES	CtBP-E1A blk	D2 ag	D2 PAM	TRPV1 PAM	Six1-Eya2 blk	PINK1 modulator	Sfp inh
COc1cc(C(=O)NNC(=O)CSc2nnc3ccccn23)cc(OC)c1OC	0	-1.7	-3	1	6	-1.2%	x
COc1ccccc1N1CCN(C(=O)C(Sc2ccccc2)c2ccccc2)CC1 (centres undefined)	-4	-0.7	-15	7	-8	-1.0%	2%

More compounds:
SMILES	CtBP-E1A blk	D2 ag	D2 PAM	TRPV1 PAM	Six1-Eya2 blk	PINK1 modulator	Sfp inh
O=C(NC(=S)Nc1ccc(Br)cn1)c1cccs1	x	-2.8	-11	3	9	7.0%	u
CCc1ccc2c(c1)cc(CN(C(=S)Nc1ccccc1)C1CC1)c1nnnn12	4	-1.8	-2	-12	0	u	-9%
Cc1noc(C)c1C(=O)NCCc1ccccc1	2	0.6	-1	13	0	-1.2%	1%
Cc1ccc(S(=O)(=O)CC2CSc3nc(N)cc(=O)n32)cc1 (centres undefined)	4	-0.7	10	-1	0	-0.6%	9%
Clc1cccc(/C=N/N2CCN(Cc3ccccc3)CC2)c1	x	6.1	-6	-2	u	6.3%	13%
COc1ccc(-n2ncc3c(SCC(=O)OC(C)C)ncnc32)cc1	14	0.7	-3	x	23	2.8%	x
Cc1cc(NC(=O)CSc2nc3c(cnn3-c3cccc(Cl)c3)c(=O)[nH]2)no1	5	6.0	17	x	-18	3.1%	x
COC(=O)Cc1ccc(NC(=S)NNC(=O)c2ccccc2Br)cc1	2	-7.4	-35	-5	6	-1.5%	-10%
CC(=O)c1cccc(OCc2cc(C(=O)N3C[C@@H](C)O[C@@H](C)C3)no2)c1	12	-0.2	-1	0	4	0.1%	3%
COc1ccc(-c2oc3ncnc(NCCN4CCOCC4)c3c2-c2ccc(OC)cc2)cc1	11	-0.5	-21	16	2	-2.8%	-18%
Cc1ccc(C)c(C(O)c2ncc(-c3ccc4ccccc4c3)[nH]2)c1 (centres undefined)	-6	-5.8	-11	x	-3	7.9%	x
COc1cccc(CC(NC(C)=O)C(=O)NC2CCN(C(=O)Nc3ccc(C)cc3)CC2)c1 (centres undefined)	1	-1.6	-4	0	1	0.7%	25%
O=C(CCc1ccccc1)Nc1nnc(-c2ccc3c(c2)OCCO3)o1	-9	1.5	1	u	-5	0.6%	-33%
COC(=O)[C@]1(C)N[C@H](CN(C)C(=O)c2ccc(C)cc2)[C@@H]2C(=O)N(C)C(=O)[C@@H]21	0	-1.2	x	x	1	-1.0%	x
CCCCCC(=O)N1CCCC1	-2	-3.3	-6	-6	-5	1.3%	19%
CCN(c1ccccc1)S(=O)(=O)c1ccc(C(=O)NCC(c2cccs2)N(C)C)cc1 (centres undefined)	-19	-3.6	-30	4	-17	0.2%	0%
O=S1(=O)CC(N2CCN(CCO)CC2)CN1Cc1cn(Cc2ccccc2C(F)(F)F)nn1 (centres undefined)	4	-4.3	-11	x	9	2.8%	x
O=c1cc(C=NNc2ccccc2)[nH]c(=O)[nH]1	-3	-0.7	4	x	-1	0.3%	x
O=C(COC(=O)Cc1ccccc1F)Nc1ccccc1[N+](=O)[O-]	-22	-4.4	-8	-7	u	2.8%	x
CN1CCN(c2ccc(S(=O)(=O)N3CCCCC3)cc2NC(=O)c2cccc([N+](=O)[O-])c2)CC1	-13	0.0	-8	0	-15	-0.8%	15%
C[C@H]1NC(=O)[C@]2(C)[C@@H](c3ccccc3)[C@H]3COc4ccccc4[C@@H]3N2C1=O	-1	-0.7	0	x	-1	1.4%	x
COc1ccccc1N1CCN(S(=O)(=O)CCNC(=O)c2cc(OC)c(OC)c(OC)c2)CC1	x	3.4	-7	-3	1	8.9%	15%
O=C(C[C@H]1C(=O)N(c2ccc(F)c(F)c2)C[C@@H]1Cc1ccccc1)Nc1ccccc1	2	-0.7	-3	-1	0	2.6%	1%
CC(=O)Nc1ccc2nc(NC(=O)c3ccc([N+](=O)[O-])o3)sc2c1	-5	7.0	6	u	-8	1.9%	-10%
CC(C)(C)C(=O)Nc1ccnn1C1CCN(C(=O)c2cccc(Cl)c2)CC1	7	-1.6	9	-9	-15	1.8%	7%
COc1cccc(OC)c1NC(=O)C1CCCN1C(=O)NCc1ccccc1 (centres undefined)	1	-0.2	-2	5	-1	0.4%	11%
O=C(/C=C/c1ccc(F)cc1)N1CCCc2ccccc21	8	-8.8	-11	-22	6	3.0%	-25%
Cc1ccc(S(=O)(=O)N2CCOCC2)cc1NC(=O)CSc1ccc(Cl)cc1	-2	-5.4	7	-18	0	-0.5%	x
Nn1c(SCC(=O)Nc2ccc3c(c2)OCO3)nncc1=O	-5	-1.8	-2	6	-10	0.2%	-6%
CCCCn1c(N)c(N(CC(C)C)C(=O)COC(=O)Cc2cccc(OC)c2)c(=O)[nH]c1=O	7	6.1	7	14	-1	-1.2%	x

Assay outcomes (PubChem)
